Assay outcomes deposited in PubChem by National Center for Advancing Translational Sciences (NCATS).
Vaccinia mCherry – vaccinia inhibition (mCherry reporter) | Vaccinia virus mCherry reporter infection, fluorescence; about a quarter of the inactives have no number | Potency, µM (titrated, usually from 36.5 µM), for inactives: at the top dose activity change, negative = inhibition, most hits filed as inhibitors | 310,000 compounds, 0.63% hits; active = well fitted inhibition curve with a large enough effect; inconclusive = small, poorly fitted or top-dose-only effect; inactive = no such curve, though single readings can be large or run the other way; tested in A549 cells; also: nearly all actives have a fitted effect of over 35% in size; inactives centre near -10
VACV Venus inh – vaccinia inhibition (Venus reporter); Vaccinia virus Venus reporter expression, fluorescence; Potency, µM (series often up to 36.5 µM), without a hit: at the highest dose activity change, negative = inhibition, actives largely listed as inhibitors; 330,000 compounds, 0.46% hits; AID 720580; active means well fitted inhibition curve with a large enough effect; inconclusive means small, poorly fitted or top-dose-only effect; inactive means no such curve, though single readings can be large or run the other way; tested in A549 cells; also: nearly all actives have a fitted effect of over 30% in size; inactives centre near -10
* = called active by the depositor; i = inactive; ? = inconclusive; · = no result given; & = joins results of further samples; [ ] = another dose, or the depositor's remark. % is scaled to controls: 0 for no effect and ±100 for the full control effect; potency is read from the fitted curve at half-maximal effect.

Sequence of screens – Vaccinia mCherry, VACV Venus inh
> COc1cc(C(=O)N/N=C(\C)c2ccc3c(c2)OCO3)cc(OC)c1OC
    ?, ?
> CCC[n+]1c(C)sc2c(OC)ccc(OC)c21
    -2%, -7%
> CCOc1ccc(N2C(=O)C3Sc4[nH]c(=O)sc4C(/C=C/c4ccccc4)C3C2=O)cc1 (configuration not stated)
    -18%, -3%
> O=C(NCCNC1CCCCC1)c1ccco1
    2%, 0%
> Cc1ccc(C(=O)NC(=S)Nc2cccc(-c3nc4ccccc4s3)c2)cc1
    -11%, -9%
> CC(=O)Nc1ccc(OCC(O)CN2C(C)(C)CC(O)CC2(C)C)cc1 (configuration not stated)
    i, -17%
> COc1ccc(CNC(=O)CCNS(=O)(=O)c2ccc(Br)s2)cc1
    i, -16%
> CCCCN(Cc1ccccc1)C(=O)C1CCN(S(=O)(=O)c2c(C)noc2C)CC1
    -11%, -2%
> Cc1nn(C)cc1S(=O)(=O)N1CCN(Cc2ccc(F)cc2Cl)CC1
    -5%, 9%
> Cc1ccc(-n2nnc(-c3cnc4ccccc4c3)n2)cc1
    -11%, -4%
> CC(C)CCNC(=O)C(c1ccco1)N(Cc1ccc(F)cc1)C(=O)c1snc(C(N)=O)c1N (configuration not stated)
    -3%, -13%
> COCCN1C=C2C(=O)C(C)(OC(=O)c3cccs3)C(=O)C=C2C=C1CCCC(=O)OC (configuration not stated)
    -9%, -7%
> CC[C@H]1CC2CN3CCc4c([nH]c5cc(OC)ccc45)[C@](C(=O)OC)(C2)[C@H]13
    -8%, 7%
> O=C(CCc1nnc2ccc(NCc3ccco3)nn12)N1CCN(c2ccccc2)CC1
    i, -8%
> Cc1noc(C)c1S(=O)(=O)Nc1ccc2c(c1)C(=O)N([C@H](C)CO)C[C@H](C)[C@@H](CN(C)C(=O)CCCN(C)C)OCCCC[C@@H](C)O2
    -20%, -4%
> CCN(CC)S(=O)(=O)N1CCN(S(=O)(=O)N2CCOCC2)CC1
    i, 1%
> C/C(=C\C(=O)c1ccc(C)cc1)Nc1cccc(O)c1
    -25%, -8%
> NS(=O)(=O)c1ccc(CNC(=O)c2ccc(NS(=O)(=O)c3ccc4[nH]c(=O)[nH]c4c3)cc2)cc1
    -11%, 2%
> O=C1CN(C(=O)/C=C/c2ccccc2)CCN1
    -4%, -7%
> O=C(Cn1c(=O)c2ccccc2n(CC(=O)Nc2ccccc2F)c1=O)NCCc1ccccc1
    -6%, 8%

An excerpt from further up:
Sequence of screens – Vaccinia mCherry, VACV Venus inh
> COc1cc(C(=O)N/N=C(\C)c2ccc3c(c2)OCO3)cc(OC)c1OC
    ?, ?
> CCC[n+]1c(C)sc2c(OC)ccc(OC)c21
    -2%, -7%

The list continues:
Sequence of screens – Vaccinia mCherry, VACV Venus inh
> CCCCCc1nc2ccccc2c(=O)n1N
    -5%, -25%
> O=C1N[C@@H](c2ccccc2)COC(=O)[C@H](Cc2ccc(F)cc2)CC/C=C/C[C@H]1CC(=O)N(CCO)Cc1ccccc1
    -23%, -27%
> CC1(C)Cc2c(sc3ncn4nc(CCC(=O)O)c(=O)nc4c23)CO1
    -9%, -2%
> COc1cccc(/C=N/NC(=O)CCCC(=O)Nc2ccc(Br)cc2)c1
    ?, ?
> COC(=O)c1c(N)c(C#N)c2n1CCCCC2
    -18%, -6%
> CCOc1ccccc1C(=O)Nc1nn[nH]n1
    -17%, -4%
> COc1ccccc1C(=O)Nc1ccc(S(=O)(=O)N2CCCCC2)cc1
    10%, 1%
> CCCS(=O)(=O)N1CCCC(C(=O)N2CCN(c3ccccn3)CC2)C1 (configuration not stated)
    ·, -19%
> CC(C)(C)c1cc(C(C)(C)C)c2oc(=O)c(-c3nc4ccccc4[nH]3)cc2c1
    -7%, -8%
> O=C(COC(=O)CCc1nc2ccccc2n1-c1ccccc1)Nc1ccc(N2CCCCC2)cc1
    -6%, 1%
> Cc1cc(-c2nc(C)c(C(=O)NNC(=O)NC(C)C)s2)no1
    -6%, -4%
> Cc1c(-c2ccccc2)nc2ccccc2c1C(=O)Nc1ccncc1
    -8%, 6%
> Cc1ccc(Cn2c(-c3ccccc3)nc3ccccc32)cc1
    -8%, 6%
> CCCOc1ccc(-c2nnc(-c3cccs3)o2)cc1
    ·, 39%[activator]
> Cc1cccc2c(CC(=O)Nc3ccccc3)noc12
    -12%, 3%
> O=C(NCCCN1CCCC1=O)c1cc(=O)c2ccccc2o1
    ·, -11%
> C=CCn1c(SCC(=O)N2CCc3ccccc3C2)nc2ccccc2c1=O
    -21%, -24%
> COc1cc(/C=N/NC(=O)CCC(=O)Nc2ccc(C)cc2)ccc1O
    -19%, -1%
> Cc1[nH]c2ccccc2c1C(=O)C(C)OC(=O)c1ccc(NC(=O)CC#N)cc1 (configuration not stated)
    -6%, -16%
> Cc1nn(CC(C)C)c(Cl)c1C(=O)N(c1ccc(Cl)cc1F)S(C)(=O)=O
    -17%, -18%

Single records, from the list above. Screens in order: Vaccinia mCherry | VACV Venus inh
COc1cccc(/C=N/NC(=O)CCCC(=O)Nc2ccc(Br)cc2)c1 across the screens: ? | ?
CCCCN(Cc1ccccc1)C(=O)C1CCN(S(=O)(=O)c2c(C)noc2C)CC1 across the screens: -11% | -2%
Cc1noc(C)c1S(=O)(=O)Nc1ccc2c(c1)C(=O)N([C@H](C)CO)C[C@H](C)[C@@H](CN(C)C(=O)CCCN(C)C)OCCCC[C@@H](C)O2 across the screens: -20% | -4%

(next part)
Sequence of screens – Vaccinia mCherry, VACV Venus inh
> COc1ccc(CC(=O)Nc2ccc(S(=O)(=O)Nc3nccc(C)n3)cc2)cc1
    -20%, -17%
> Cc1cc(C(=O)N2CCN(S(=O)(=O)c3ccccc3F)CC2)c(C)o1
    i, -7%
> CC(=O)Nc1ccc(C(=O)CSc2nnc3cc(C)c4ccccc4n23)cc1
    -9%, -1%
> O=C(CN1CCN(c2ccccc2)CC1)Nc1ccccc1C(=O)NCCc1ccccc1
    ?, ?
> Oc1c(C=NCc2ccccc2)sc2ccccc12
    -24%, -20%
> Cc1cc(C)cc(N(C(C)C(=O)Nc2c(C)n(C)n(-c3ccccc3)c2=O)S(C)(=O)=O)c1 (configuration not stated)
    ·, -20%
> CCC(=O)Nc1nnc(SCc2ccccc2F)s1
    -1%, -5%
> Cc1ccc(C)c(-n2nnc3ccccc3c2=O)c1
    i, -14%
> COc1cccc(C(=O)OC(C)CN2CCCC2)c1 (configuration not stated)
    -11%, -12%
> COc1cc(OC)cc(C(=O)N[C@H](C(=O)OCC(=O)c2ccc(F)cc2)C(C)C)c1
    -2%, -8%
> COc1ccc(/C(O)=C2\C(=O)C(=O)N(c3cc(C)on3)C2c2ccccc2OC)cc1C (configuration not stated)
    -18%, -12%
> O=C(NCC(F)(F)F)N1CCOCC1
    ·, -6%
> CC1=CC(C)[C@H](/C=N/n2c(=O)[nH]c3c([nH]c4ccc(C)cc43)c2=O)C(C)C1 (some centres not stated)
    i, -14%
> COc1ccc(NC(=O)c2c(C)oc3ccc(O)c(CN4CCN(Cc5ccccc5)CC4)c23)cc1Cl
    -11%, -25%
> Cc1ccc(C(=O)N/C(=C/c2cccs2)C(=O)N2CCCCC2)cc1
    -15%, -22%
> CCN(CC)S(=O)(=O)c1nnc(NC(=O)c2ccc(C(C)C)cc2)s1
    -11%, -13%
> COc1ccc(NC(=O)CSc2nc3nc(C)c(Cc4ccccc4Cl)c(C)n3n2)cc1OC
    -15%, -13%
> O=S(=O)(c1ccc(Br)c2ccccc12)N1CCCC1
    i, -13%
> Cc1c(C(=O)O)c(C(=O)O)c2n1CCS2
    i, -2%
> Cc1ccc(C(=O)CCNc2ccc(Cl)cc2)o1
    ·, -27%
> C/C(=N\NC(=O)OC(C)(C)C)c1ccc[nH]1
    -13%, -10%
> COCCCNC(=O)c1cc2c(=O)n3cccc(C)c3nc2s1
    0%&-6%, -1%&-4%
> Cc1c(NC(=O)Cn2nc(C(=O)O)c3ccccc3c2=O)c(=O)n(-c2ccccc2)n1C
    ·, -1%
> O=C(CC1C(=O)NCCN1C/C=C/c1ccccc1)NCCCC1CCCC1 (configuration not stated)
    -11%, -10%
> COc1cccc(-n2c(=S)sc3c(=O)n(-c4ccccc4OC)c(SCC4OCCO4)nc32)c1
    i, 1%
> CC1(c2ccc(Cl)cc2)NC(=O)N(CC(=O)Nc2ccc(N3CCCCC3)cc2)C1=O (configuration not stated)
    -10%, -5%
> COc1cccc(OCc2nnc(SCc3cc(=O)[nH]c4ccccc34)o2)c1
    -7%, -9%
> Cn1c(N)c(C(=O)CSc2nc3ccccc3n2-c2ccccc2)c(=O)n(C)c1=O
    ·, -13%
> Cc1cccc(N2CCN(C(=O)COc3ccc4c(c3)CCC4)CC2)c1C
    i, -14%
> CSC1=C(C#N)C(CC(C)C)C(C(C)=O)=C(C)N1 (configuration not stated)
    ·, -4%
> OC(c1ccccc1)(c1nc(-c2cccc(C(F)(F)F)c2)cs1)C(F)(F)F (configuration not stated)
    -25%, -23%
> COc1ccccc1NC(=O)COC(=O)C12CC3CC(CC(Cl)(C3)C1)C2
    i, -13%
> CCCN(CC(=O)Nc1ccccc1C)C(=O)/C=C/c1ccc(OC)c(OC)c1
    -6%, -9%
> CCC1CO/C(=C(\C(=C(Cl)Cl)N2CCOCC2)[N+](=O)[O-])N1 (configuration not stated)
    ?, ?
> C[C@@H]1CN([C@@H](C)CO)C(=O)CCCn2nncc2CO[C@H]1CN(C)S(=O)(=O)c1ccc(Oc2ccccc2)cc1
    -7%, -30%
> CCOc1ccc(N2C(=O)C3ON(c4ccccc4)C(c4ccco4)C3C2=O)cc1 (configuration not stated)
    -14%, -13%
> CCC(Cc1ccccc1)NC(=O)c1cccc(Nc2nc3ccccc3nc2-n2nc(C)cc2C)c1 (configuration not stated)
    -7%, 1%
> CCOC(=O)c1c(-c2ccc(OC)c(OC)c2)csc1NC(=O)C1CCCO1 (configuration not stated)
    -15%, 4%
> CCOC(=O)c1c(C)oc2ccc(NS(=O)(=O)c3ccc(C(=O)O)cc3)cc12
    i, 0%
> CC(Oc1ccccc1)C(=O)Nc1cccc([N+](=O)[O-])c1 (configuration not stated)
    -15%, -7%
> COc1ccc(Cc2c(N)nc(N)nc2N)cc1
    ·, -25%
> CC(=O)OCC(=O)C1(O)CCC2C3CCC4=CC(=O)CCC4(C)C3C(O)CC21C (configuration not stated)
    i, -4%
> CC(C)c1nnc(NC(=O)CCC(=O)NCC2CCCO2)s1 (configuration not stated)
    ·, 2%
> CC(C)CN(C(=O)COC(=O)c1cccs1)c1c(N)n(Cc2ccccc2)c(=O)[nH]c1=O
    -10%, -12%
> Cc1sc(NC(=O)CSc2nnnn2C2CCCC2)c(C#N)c1C
    -20%, -8%
> O=C(NC1CCCCC1)NC1CC2CCC(C1)N2Cc1nnnn1Cc1ccc2c(c1)OCO2 (configuration not stated)
    -16%[1.46 µM], -20%
> COc1cc(C2SC[C@H]3C(=O)N(c4ccccc4)C(=O)N23)cc(OC)c1OC (some centres not stated)
    -3%, -1%
> N#CCN1C(=O)NC2(CCCc3sccc32)C1=O (configuration not stated)
    i, 0%
> COc1ccc(NC(=O)c2cnn(-c3ccccc3)c2C)cc1OC
    i, -16%
> COc1ccc(C)cc1S(=O)(=O)N1CCC2(CC1)OCCN2S(=O)(=O)c1cccs1
    -13%, -5%
> COC(=O)N[C@H](CC(C)=O)c1cccc(C(F)(F)F)c1
    i, -5%
> COc1ccc([C@@H]2CC=C(C(=O)O)[C@H](c3cccc(Cl)c3)N2S(=O)(=O)c2ccc(C)cc2)cc1OC
    i, -11%
> CC(c1nnc(SCn2nnc3ccccc3c2=O)n1-c1ccc(Cl)cc1)N(C)C (configuration not stated)
    -11%, -15%
> CCOC(=O)c1ccc[n+](CC(=O)Nc2cc(C(F)(F)F)ccc2Cl)c1
    -10%, -8%
> CC(=O)c1c(N2CCCC2)nc(=S)n(-c2ccccc2)c1C
    i, 0%
> N#C/C(=C/c1ccc(-c2ccccc2)o1)c1nc(-c2cccs2)cs1
    -7%, 12%
> O=C(CC[C@H]1O[C@@H](n2cnc3c(NC(=O)c4ccccc4)ncnc32)[C@H](O)[C@@H]1O)NCc1cccc2ccccc12
    13%, 9%
> Cc1cc(C)nc(Nc2ccc(F)cc2)n1
    i, -2%
> COc1cc2c(c(OC)c1)C(c1ccncc1)CC(=O)N2 (configuration not stated)
    1%, -3%
> Cc1c(C(=O)Nc2ccc(Br)cc2F)oc2ccc(S(=O)(=O)N3CCCCC3)cc12
    ?, ?

4 entries picked at random from those above, as already listed:
Sequence of screens – Vaccinia mCherry, VACV Venus inh
> COc1ccc([C@@H]2CC=C(C(=O)O)[C@H](c3cccc(Cl)c3)N2S(=O)(=O)c2ccc(C)cc2)cc1OC
    i, -11%
> CCOC(=O)c1ccc[n+](CC(=O)Nc2cc(C(F)(F)F)ccc2Cl)c1
    -10%, -8%
> COC(=O)N[C@H](CC(C)=O)c1cccc(C(F)(F)F)c1
    i, -5%
> O=C(NC1CCCCC1)NC1CC2CCC(C1)N2Cc1nnnn1Cc1ccc2c(c1)OCO2 (configuration not stated)
    -16%[1.46 µM], -20%

The list goes on:
Sequence of screens – Vaccinia mCherry, VACV Venus inh
> CC(C)(C)OC(=O)NCCc1nnc(S(=O)(=O)Cc2ccc(Cl)cc2Cl)o1
    ?, ?
> Cc1ccc(Nc2ccc(N3CCN(C(=O)c4ccc([N+](=O)[O-])cc4Cl)CC3)nn2)cc1
    -30%, -23%
> CNC(=O)c1ccsc1NC(=O)CCS(=O)(=O)c1ccc(Cl)cc1
    ?, ?
> N#Cc1c(-c2ccccc2)nc(-c2ccncc2)[nH]c1=O
    i, -3%
